Screening results (PubChem BioAssay)
B2AR ag: agonists of human beta-2 adrenergic receptor inducing internalization; P07550; Am2.2-beta2AR cells, FAP receptor internalization, flow cytometry; reference of the scale not given here; response, % (concentration not given with the values); 0.43% of 340,000 active;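 active = response above a set limit, near 3 SD of response in nonfluorescent compounds, cut at about 42% in these data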;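 note: stock transfer was 100 nL into about 11 µL; a reference agonist was the positive control; negative values mostly stem from fluorescent compounds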
Target sequence (P07550 whole entry, looked up): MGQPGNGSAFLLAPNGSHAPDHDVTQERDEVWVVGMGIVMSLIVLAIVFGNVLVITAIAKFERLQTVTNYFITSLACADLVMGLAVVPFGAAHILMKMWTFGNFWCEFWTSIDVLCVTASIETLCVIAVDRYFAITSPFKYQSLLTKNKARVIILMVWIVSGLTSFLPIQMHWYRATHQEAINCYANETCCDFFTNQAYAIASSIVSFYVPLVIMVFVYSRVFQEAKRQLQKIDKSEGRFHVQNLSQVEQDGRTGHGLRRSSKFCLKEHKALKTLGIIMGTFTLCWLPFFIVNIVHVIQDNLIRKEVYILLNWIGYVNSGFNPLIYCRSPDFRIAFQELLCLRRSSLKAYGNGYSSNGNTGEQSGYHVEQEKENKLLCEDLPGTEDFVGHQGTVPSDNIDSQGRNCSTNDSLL
Vif A3G: inhibitors of Vif binding to APOBEC3G peptide, primary screen, biochemical, TR-FRET, GST-Vif 1-94, biotin-A3G peptide, dose response retest (AID 1117319); 0.57% of 260,000 active; TR-FRET GST-Vif / biotin-A3G peptide binding; higher % means a stronger effect; test concentration not given here; strong numbers were not always called active; inhibition, %, or IC50 in µM where a hit was titrated;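 active = above the screen mean plus three standard deviations and confirmed in dose response; inconclusive = results disagree or hit not tested in dose response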;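 note: Vif residues 1-94 fused to GST binding biotinylated APOBEC3G peptide 110-148; 0% = full assay without inhibitor and 100% = GST in place of GST-Vif; retest series ran down from 100 µM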
A1 inh: inhibitors of the anti-apoptotic protein A1, read as caspase activation; MEF A1-2A-BIM cells, Caspase-Glo 3/7 luminescence, 3 h; percent of clofoctol response, vehicle zero; caspase activation, % (concentration not given with the values); AID 2462; 0.066% of 330,000 active;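 active = over half of replicate activation scores above 10%, or exactly half above 10 with the replicate mean above 10; inconclusive = replicate mean below 10 yet half the replicates above 10; inactive = over half of replicates below 10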;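 note: wells of about 30 µL received 50 nL stock; many hits fall short of the cut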
Ecoli growth: blocks Escherichia coli growth; OD600, 23 h; stronger effect = lower value; OD600 absorbance (concentration not given with the values); 0.21% of 330,000 active; AID 1053175;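 active = OD600 absorbance below the run mean of sample wells minus 3.6 SD, in any replicate, cut at about 0.56 in these data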;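 note: stock transfer was 300 nL into about 60 µL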
UCH37 DUB inh: blocks the human deubiquitinase UCH37 | purified proteasome/UCH37, Ub-AMC cleavage fluorescence | 0.33% of 330,000 active | inhibition, % (no concentration beside the values);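 active = mean of two replicates above 20%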;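 note: 0% = compound-free wells with enzyme and 100% = wells lacking proteasome; stock transfer was 100 nL into about 20 µL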
Target sequence (Q9Y5K5 whole entry, looked up): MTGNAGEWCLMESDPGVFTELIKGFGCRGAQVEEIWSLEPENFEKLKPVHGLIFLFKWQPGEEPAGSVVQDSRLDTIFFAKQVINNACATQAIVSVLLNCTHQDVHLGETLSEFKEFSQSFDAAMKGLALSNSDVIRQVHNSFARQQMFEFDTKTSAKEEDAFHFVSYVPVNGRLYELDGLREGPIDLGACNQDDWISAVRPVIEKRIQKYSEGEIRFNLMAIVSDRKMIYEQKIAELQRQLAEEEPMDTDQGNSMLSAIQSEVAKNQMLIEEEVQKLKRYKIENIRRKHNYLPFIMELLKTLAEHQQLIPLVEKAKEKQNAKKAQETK
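Material: Human UCH37 enzyme supplied as purified proteasome complex | Schedule: 30 min preincubation with enzyme, 25 min cleavage at room temperature | Detection: AMC fluorescence 355/460 nm | Measure: % inhibition of Ub-AMC cleavage fluorescence | Controls: Wells without proteasome as full block, compound-free enzyme plus substrate as uninhibited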
HNF4A DNA FP: change in binding of human HNF4 alpha to DNA | P41235 | HNF4a-FITC DNA binding, fluorescence polarization, 1 h | activity change, % at 10 µM | 0.3% of 360,000 active | AID 1224865; in the data active = activity change above about 30%, passing the limit was not always enough;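 note: controls were the assay level and a saturating level of protein; the project sought stronger binding though the title names inhibitors; some compounds called inactive have numbers as strong as hits; positive values seem to mean higher polarization but the record does not say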
LANA-H2A inh: blocks KSHV LANA binding to histone H2A/H2B | cell-free LANA-H2A/H2B peptide, fluorescence polarization | inhibition, % (concentration not given with the values) | 0.6% of 320,000 active; in the data active = inhibition mostly above about 10%, no sharp cut-off; inactive = mostly below about 6.7%;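 note: stock transfer was 7.5 nL into about 10 µL; 0% = median of vehicle wells and 100% = median of positive control wells; one replicate is shown; the record names a cut of 25% in any replicate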
Numbers without * were called inactive; i = inactive; ? = inconclusive; / = not tested or not shown; + = active, no number.

SMILES	B2AR ag	Vif A3G	A1 inh	Ecoli growth	UCH37 DUB inh	HNF4A DNA FP	LANA-H2A inh
O=C(NN=C(c1ccccc1)c1ccccn1)c1ccccc1	0.0	-4.6%	-0.2	/	/	0.4	-2.3
COc1ccc(C2c3cc(OC)c(OC)cc3CCN2C(=O)c2ccccc2)cc1OC (stereo not given)	15.9	/	0.4	0.709	3.4	-0.2	2.6
CCOc1ccc(-c2nnc(-c3ccco3)o2)cc1OCC	-11.3	24.2%	-0.5	0.717	-93.5	-0.6	0.3
OC(c1ccc(Cl)cc1)C(O)c1nc2ccccc2[nH]1 (stereo not given)	-2.1	54.4%	1.1	0.721	4.3	2.2	2.2
O=C(CSCc1ccc(Cl)cc1)NCc1ccccn1	-0.7	6.9%	-0.6	0.699	-1.5	-0.7	5.3
COc1ccc(C(C(=O)NC(C)(C)C)N(C(=O)CCC(=O)Nc2cc(C)on2)c2cccc(F)c2)cc1 (stereo not given)	-3.3	/	0.0	0.646	2.0	3.5	1.8
CCOC(=O)c1sc(NC(=O)CSc2nc(-c3ccco3)cc(C(F)(F)F)n2)c(C(=O)OCC)c1C	5.3	/	/	0.726	-4.6	8.2	/
CC(=O)NC(CC(C)C)C(=O)NC(=O)NCc1ccccc1 (stereo not given)	-2.8	-4.8%	0.7	0.716	3.9	2.2	5.9
Cc1csc(CNc2ncnc3ccc(-c4ccccc4Cl)cc23)c1	-1.4	/	-0.5	/	/	1.0	-2.0
COc1cc2cc(C)c3nnc(SCC(=O)Nc4cc(C)on4)n3c2cc1OC	-21.8	/	0.4	0.702	4.2	-0.7	-1.8
CN(CCOc1ccccc1)C(=O)CCc1c[nH]c2ccccc12	0.8	-3.1%	0.3	0.679	1.3	1.0	-3.2
O=C(C[C@@H]1C/C=C\C[C@H](NC(=O)OCC2c3ccccc3-c3ccccc32)C(=O)OC[C@H]2CCCN2C1=O)N[C@@H](CO)Cc1ccccc1	7.4	0.4%	0.3	0.685	2.8	1.1	i
NC(=S)Nc1nc2ccccc2s1	-2.3	-8.7%	-0.9	0.69	6.3	-1.0	-2.8
Cc1cccc(Nc2nc3c(c(=O)n(C)c(=O)n3C)n2Cc2ccccc2)c1	-3.0	0.3%	/	0.767	-3.2	-3.9	/
CCn1nnnc1SCC(=O)Nc1cc(C)on1	4.3	/	-0.3	0.765	-2.7	-0.5	-7.9
N#C/C(=N\Nc1ccc(Cl)cc1)C(=N)N1CCCCC1	10.7	-0.1%	-0.3	/	/	1.0	-0.1
CC1=NN(C(=O)CCc2ccccc2)C(c2ccccc2)C1 (stereo not given)	1.4	-2.6%	-0.6	0.675	5.6	-5.3	-4.8
CSc1ncc(CN2CCc3c([nH]c4ccccc34)C2c2cccc(O)c2)cn1 (stereo not given)	-11.2	/	0.5	0.604	-2.3	-0.1	0.2
OCCNCCNCc1ccccc1OCc1ccccc1	-0.5	1.5%	-1.4	0.676	0.6	3.6	2.9
CCOc1ccc(NC(=O)CN(C)CC(=O)NC2CCCc3ccccc32)cc1OCC (stereo not given)	3.6	-3.5%	0.0	0.715	0.7	5.7	-0.6
COCC(C)n1c(SCC(=O)Nc2cc(C)on2)nc2ccccc2c1=O (stereo not given)	-8.2	-6.2%	/	0.664	1.3	-0.1	/
CCN(CC)CCN(Cc1cc2ccc(C)c(C)c2[nH]c1=O)C(=S)NCc1ccco1	3.2	-0.6%	0.4	0.66	-4.1	-0.5	-0.6
CCNC(=S)N1CCN(c2ccccn2)CC1	-2.3	/	0.3	0.671	-1.8	2.5	7.6
COc1ccc(S(=O)(=O)N(C)CC(=O)N2CCC(C(N)=O)CC2)cc1Cl	-3.5	-4.3%	0.3	0.698	1.0	0.1	3.0
O=C(NNC(=O)C1CCN(c2ncccn2)CC1)c1ccncc1	-7.9	5.6%	-0.9	0.644	-0.8	6.3	-3.6
CC(C)(C)C1CCc2[nH]c3ccccc3c(=O)c2C1 (stereo not given)	-11.7	4.4%	-0.5	0.689	-0.1	-2.0	6.9
C(=Cc1cccnc1)c1ccncc1	3.2	-0.7%	/	0.644	1.1	4.4	/
Cc1ccc(S(=O)(=O)NCCC(=O)Nc2ccc3c(c2)OCO3)cc1	7.3	6.1%	-0.1	0.679	4.9	1.6	0.0
COc1ccc(-c2noc(COC(=O)c3ccco3)n2)cc1OC	-6.9	-7.9%	0.3	0.663	2.3	-0.9	-0.9
COc1nnc(-c2ccc(C)c(S(N)(=O)=O)c2)c2ccccc12	6.6	-1.3%	-0.2	0.663	8.1	-1.7	-1.1
CCOc1ccc(NC(=O)c2cn(-c3ccc(OCC)cc3)c(=O)c3cc(OC)c(OC)cc23)cc1	1.6	3.1%	0.6	0.685	4.0	0.1	0.8
COc1cccc(NC(=O)CSc2nc3ccccc3c(=O)n2C)c1	-5.7	1.7%	0.7	0.672	2.4	1.0	15.3
O=C(N/C(=C\c1ccc(Br)cc1)c1nc2ccccc2[nH]1)c1ccco1	1.2	-2.8%	0.0	0.712	-32.7	3.0	-3.5
CC(O)CNCCOc1ccccc1OCc1ccccc1 (stereo not given)	-0.3	17.6%	0.2	0.681	2.4	-2.5	5.4
CCc1nn2c(N3CCOCC3)cc(C)nc2c1-c1ccc(F)cc1	-0.9	-7.6%	1.6	0.685	-41.8	-1.1	2.3
Cc1ccc(S(=O)(=O)NCc2ccccc2)cc1C(=O)NCC(C)(C)N1CCOCC1	-4.5	-8.0%	-0.2	0.681	-3.5	0.8	0.3
S=C(NCCc1ccccn1)Nc1ccc(Cl)cc1Cl	2.6	/	-0.1	0.666	4.0	3.7	-5.0
CCc1nnc(NC(=O)C(c2ccccc2)c2ccccc2)s1	5.2	/	-0.7	0.645	2.0	0.6	3.9
Cc1cccc(C(=O)NC2CCN(CC(=O)Nc3ccc4c(c3)OCO4)CC2)c1	-4.1	/	0.9	0.643	2.1	-1.0	-3.3
COC(=O)C(C)Sc1nnc(SC(C)C(=O)OC)s1 (stereo not given)	-2.7	9.7%	-1.6	0.805	0.1	-0.4	-3.4
Cc1cc(C)n(-c2ccc(C(=O)OCC(=O)Nc3ccc(S(=O)(=O)N4CCCCC4)cc3)cc2)n1	-0.5	-0.3%	0.4	0.697	-0.8	-0.6	0.1
O=C(Cc1ccc(F)cc1)Nc1c(C(=O)N2CCN(c3ncccn3)CC2)oc2ccccc12	-11.1	/	0.6	0.662	1.2	3.0	1.2
COc1ccc(OC)c(N/C=C2/CCCCC2=O)c1	-6.3	22.6%	1.8	0.753	8.3	6.9	2.4
Cc1occc1C(=O)NNC(=O)c1ccc(F)cc1	6.8	-1.1%	-0.9	0.683	-0.6	-2.5	2.4
CC(=O)NCc1ccc(S(=O)(=O)N2CCN(c3ccccn3)CC2)cc1	8.3	1.5%	0.2	0.655	4.3	0.2	0.9
O=C(Nc1ncc2c(n1)-c1ccccc1OC2)c1ccc(F)cc1	-4.1	-2.0%	-0.6	0.706	-330.4	1.0	-1.1
CC(=O)c1ccc(-n2nncc2-c2ccc([N+](=O)[O-])cc2)cc1	-15.5	-4.3%	-3.3	0.731	1.3	1.0	/
O=C(CN1CCCC1)Nc1ccc(Cl)cc1C(F)(F)F	-1.4	1.1%	?	0.639	1.5	1.1	-0.7
CCC(=O)c1ccc(OCC(O)CN2CCN(c3ccc(F)cc3)CC2)cc1 (stereo not given)	0.4	2.5%	0.5	0.697	-0.8	1.3	-2.9
COc1ccc(C(=O)c2ccc(N(C)C)cc2)c2ccccc12	11.8	-5.1%	1.1	0.716	3.8	0.6	-2.5
O=C(Cc1ccc(S(=O)(=O)N2CCCC2)s1)Nc1nc2c(s1)CCCC2	1.1	14.2%	-0.3	0.721	0.5	7.0	3.0
O=C(NN=C1CCCC1)c1ccc(O)cc1	-3.2	/	1.3	0.652	4.8	0.3	1.8
O=C(O)/C=C/C(=O)Nc1ccc(OC(F)F)cc1	6.1	-10.9%	3.8	0.683	3.0	-1.2	-0.2
O=C1c2ccccc2C(=O)N1CCC#Cc1ccc2cc(CCO)oc(=O)c2c1	4.1	/	0.4	0.61	3.3	1.4	2.3
CCOc1[nH]n(-c2ccc(Cl)cc2)c(=O)c1C=Nc1ccc(OC)cc1	-8.4	-0.3%	1.8	0.752	5.5	5.5	1.5
COc1ccc(C2CC2C(C)=O)cc1 (stereo not given)	5.0	-6.1%	1.7	0.692	1.2	-0.4	-0.9
CC1CCCC(N2CCN(C(=O)c3ccc(F)cc3)CC2)C1 (stereo not given)	-4.0	-4.5%	0.5	0.66	1.7	0.7	-7.3
COc1ccc(C2/C(=C(\O)c3ccc4c(c3)OCCO4)C(=O)C(=O)N2CCCN(C)C)cc1 (stereo not given)	-3.0	10.2%	-0.7	0.727	0.8	2.6	2.3
CC1(c2ccccc2)CC(C)(C)N(C(=O)CSc2nnc(N)s2)c2ccccc21 (stereo not given)	-5.8	8.7%	0.1	0.694	3.0	-0.3	-11.2
CCCc1cc(=O)oc2cc(OCC(=O)N3CCN(C(=O)C4COc5ccccc5O4)CC3)ccc12 (stereo not given)	6.9	/	2.2	0.687	-26.5	1.1	1.0
Next compounds:
SMILES	B2AR ag	Vif A3G	A1 inh	Ecoli growth	UCH37 DUB inh	HNF4A DNA FP	LANA-H2A inh
O=C1CSC(=Nc2ccc(F)cc2)N1	7.8	-9.5%	0.0	0.626	2.6	4.8	-2.7
O=c1c2ccccc2nc2n1C(CBr)CN2 (stereo not given)	6.0	?	0.1	0.708	-0.3	2.1	2.0
CCOC(=O)C1Nc2ccccc2C2c3ccccc3CC12 (stereo not given)	-9.9	/	-1.6	0.658	-1.7	-16.9	2.1
CC(NC(=O)c1cnc2ccccc2n1)c1ccccc1 (stereo not given)	19.4	/	2.8	0.678	4.8	-1.3	-1.1
Cc1ccc(-c2nnn(Cc3nc4ccccc4s3)n2)cc1	-3.8	16.2%	0.1	0.684	1.4	0.2	-2.5
CCC1(C)Cc2c(sc3c2c(=O)n(-c2ccccc2)c(=O)n3C)CO1 (stereo not given)	-4.8	1.1%	-2.2	0.712	0.3	-0.8	-1.7
Cn1cnnc1SCCn1c(N2CCCCC2)nc2c1c(=O)[nH]c(=O)n2C	-2.4	-9.0%	-0.6	0.709	3.5	3.7	-7.2
CCOC(=O)c1ccc(N2C(=O)c3n[nH]c(C)c3C2c2cccnc2)cc1 (stereo not given)	-1.9	11.9%	-0.5	0.691	3.1	1.1	-3.6
COc1ccc(C(=O)Nc2ccc3ccccc3c2)cc1	10.3	-2.6%	-12.7	0.69	-1.4	5.9	3.7
CCOC(=O)c1sc2nccc(OC)c2c1N=CN(C)C	1.0	3.2%	0.3	0.651	-109.8	1.4	6.9
CCN(C[C@H]1N[C@@](Cc2ccccc2)(C(=O)OC)[C@H]2C(=O)N(C)C(=O)[C@@H]12)S(=O)(=O)c1ccc(OC)cc1	3.7	-0.1%	0.3	0.703	1.7	0.2	+
CCOC(=O)c1c(NC(=O)CN2C(=O)NC3(CCC(C)CC3)C2=O)sc(C)c1CC (stereo not given)	-0.8	-11.4%	-0.2	0.719	2.6	0.7	-6.2
Cc1noc(C)c1NC(=O)N(C)C[C@H]1Oc2ccc(NC(=O)NC(C)C)cc2C(=O)N([C@H](C)CO)C[C@@H]1C	-11.3	/	-0.3	/	0.5	-1.6	-1.0
CC(C)OP(=O)(c1ccc(N(C)C)cc1)C(Nc1ccccc1)c1cccnc1 (stereo not given)	0.9	/	0.6	0.677	0.2	-1.6	-2.3

Printed as active in LANA-H2A inh, among the entries above:
| SMILES | B2AR ag | Vif A3G | Ecoli growth | UCH37 DUB inh | HNF4A DNA FP | LANA-H2A inh |
| --- | --- | --- | --- | --- | --- | --- |
| CCN(C[C@H]1N[C@@](Cc2ccccc2)(C(=O)OC)[C@H]2C(=O)N(C)C(=O)[C@@H]12)S(=O)(=O)c1ccc(OC)cc1 | 3.7 | -0.1% | 0.703 | 1.7 | 0.2 | + |
